Screening data deposited in PubChem by Broad Institute.
Vaccinia inh: blocks a specific stage of Vaccinia orthopoxvirus infection | Vaccinia-infected cells, mCherry/Venus stage reporter fluorescence; hits give low values; some inactives read as strong as hits | activity change (mCherry), % (test concentration not listed) | 89,000 tested, 0.01% active | AID 1053133;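 active = mCherry past -33% and 40 or more points under the early reporter, replicates agreeing; inconclusive = past -33% without that gap or agreement; tested in A549 cells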;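 also: scaled between vehicle wells and reference inhibitor wells; 23 nL library stock went into each well; one replicate is shown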
Vaccinia inh Venus: second read-out of Vaccinia inh, no call of its own (marks repeat the call); activity change (Venus), %; measured here: Venus reporter, other viral stage;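 negative = less Venus signal; first of two replicates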
Starred values were filed as active, the others as inactive; ? = inconclusive; . = not tested or not shown; & = joins results of further samples. These rows are one share of the data; rates above refer to the full screens.

SMILES	Vaccinia inh	Vaccinia inh Venus
CCNC(=O)C[C@H]1CC[C@@H]2[C@@H](COc3ccc(NC(=O)Nc4cccc(Cl)c4)cc3C(=O)N2C)O1	-4	-3
CN1CCN(C(=O)C[C@@H]2C[C@@H]3c4cc(NC(=O)NC5CCCCC5)ccc4O[C@@H]3[C@H](CO)O2)CC1	1	1
C[C@@H]1CN([C@H](C)CO)C(=O)c2cc(C3=CCCCC3)cnc2O[C@@H]1CN(C)Cc1ccccc1F	-29	-24
Cc1cc(C(=O)Nc2cccc3c2O[C@@H](CN(C)C(=O)Nc2ccccc2)[C@H](C)CN([C@@H](C)CO)C3=O)n(C)n1	5	7
COCC(=O)Nc1ccc2c(c1)C(=O)N(C)C[C@H](OC)[C@@H](C)CN(C(=O)c1cnccn1)[C@@H](C)CO2	-3	-2
C[C@@H]1CN([C@H](C)CO)C(=O)c2cc(-c3ccc(C#N)cc3)cnc2O[C@H]1CN(C)C(=O)Nc1ccc(C(F)(F)F)cc1	-12	-13
C/C=C/c1ccc([C@H]2[C@@H](CO)N3C(=O)CN(Cc4ccccc4)C[C@@H]23)cc1	0	0
CC(C)NC(=O)N(C)C[C@@H]1Oc2ccc(NC(=O)CCCCCC(=O)Nc3ccccc3N)cc2CC(=O)N([C@H](C)CO)C[C@H]1C	7	-8
C[C@H](CO)N1C[C@H](C)[C@@H](CN(C)C)Oc2ccc(NC(=O)CCCCCC(=O)Nc3ccccc3N)cc2CC1=O	22	8
C[C@@H]1CCCCO[C@@H](CN(C)Cc2ccc(Cl)c(Cl)c2)[C@H](C)CN([C@H](C)CO)C(=O)c2cc(NC(=O)Nc3ccc(F)cc3)ccc2O1	-29	-30
C[C@H](CO)N1C[C@H](C)[C@H](CN(C)Cc2ccncc2)Oc2ncc(-c3cccc(C(F)(F)F)c3)cc2C1=O	-10	-6
C[C@H](CO)N1C[C@H](C)[C@@H](CN(C)Cc2ccc(Oc3ccccc3)cc2)Oc2ccc(NC(=O)c3ccncc3)cc2CC1=O	?	.
COc1ccc(S(=O)(=O)Nc2ccc3c(c2)C(=O)N([C@H](C)CO)C[C@H](C)[C@@H](CN(C)C(=O)NC(C)C)OCCCC[C@@H](C)O3)cc1	21	19
C[C@@H]1CCCCO[C@@H](CN(C)S(C)(=O)=O)[C@H](C)CN([C@H](C)CO)C(=O)c2cc(NC(=O)NC3CCCCC3)ccc2O1	9	-2
CO[C@@H]1CN(C)C(=O)c2cc(NC(=O)C3CC3)ccc2OC[C@H](C)N(Cc2ccccc2)C[C@@H]1C	0	4
Cc1ccc(S(=O)(=O)Nc2ccc3c(c2)CC(=O)N([C@H](C)CO)C[C@@H](C)[C@H](CN(C)S(C)(=O)=O)O3)cc1	22	8
COc1ccc(S(=O)(=O)N(C)C[C@H]2Oc3c(NC(=O)Nc4ccc(C(F)(F)F)cc4)cccc3C(=O)N([C@H](C)CO)C[C@@H]2C)cc1	-33	-21
COc1ccc(CN(C)C[C@H]2Oc3c(NC(=O)Nc4ccc(OC)cc4)cccc3C(=O)N([C@@H](C)CO)C[C@H]2C)cc1	5	7
COc1ccc(NC(=O)N2CCCCN3[C@H](C2)[C@@H](c2ccc(-c4ccccc4C)cc2)[C@@H]3CO)cc1	?	.
COCC(=O)N(C)C[C@H]1Oc2cc(C#CC3CC3)ccc2S(=O)(=O)N([C@@H](C)CO)C[C@H]1C	7	1
Cc1ccc(-c2ccc3c(c2)O[C@H](CN(C)Cc2ccc(C(=O)O)cc2)[C@H](C)CN([C@@H](C)CO)S3(=O)=O)cc1	-1	-2
COc1ccc(NC(=O)N(C)C[C@H]2OCCCC[C@@H](C)Oc3ccc(NS(=O)(=O)c4ccccc4)cc3C(=O)N([C@@H](C)CO)C[C@@H]2C)cc1	2	-8
COc1cccc(-c2ccc3n(c2=O)C[C@@H]2[C@@H](CO)[C@H](C(=O)NC4CCC4)N[C@H]32)c1	5	-2
Cc1noc(C)c1NC(=O)N(C)C[C@H]1Oc2ccc(NC(=O)CCCCCC(=O)Nc3ccccc3N)cc2C(=O)N([C@H](C)CO)C[C@H]1C	43	20
CCNC(=O)[C@H]1[C@H](CO)[C@H]2Cn3c(ccc(C4=CCCC4)c3=O)[C@H]2N1C(=O)C1CC1	-3	3
O=C(C[C@@H]1C[C@H]2c3cc(NC(=O)C4CCC4)ccc3O[C@H]2[C@H](CO)O1)NCCN1CCCCC1	14	12
CN1[C@@H]2Cn3c(ccc(C4=CCCCC4)c3=O)[C@H]1[C@@H](C(=O)NCCc1ccccc1)[C@@H]2CO	-14	-7
Cc1noc(C)c1NC(=O)Nc1ccc2c(c1)C(=O)N([C@H](C)CO)C[C@H](C)[C@H](CN(C)C)OCCCC[C@@H](C)O2	10	10
C[C@@H]1CN([C@@H](C)CO)S(=O)(=O)c2ccc(C#Cc3ccncc3)cc2O[C@@H]1CN(C)C(=O)C1CCOCC1	-19	-6
COc1ccc(NC(=O)Nc2ccc3c(c2)C(=O)N([C@H](C)CO)C[C@H](C)[C@H](CN(C)S(=O)(=O)c2ccc(OC)cc2)O3)cc1	-6	-7

Reprinted from the part before: 7 entries, followed by the next part.
SMILES	Vaccinia inh	Vaccinia inh Venus
Cc1noc(C)c1NC(=O)N(C)C[C@H]1Oc2ccc(NC(=O)CCCCCC(=O)Nc3ccccc3N)cc2C(=O)N([C@H](C)CO)C[C@H]1C	43	20
CCNC(=O)[C@H]1[C@H](CO)[C@H]2Cn3c(ccc(C4=CCCC4)c3=O)[C@H]2N1C(=O)C1CC1	-3	3
O=C(C[C@@H]1C[C@H]2c3cc(NC(=O)C4CCC4)ccc3O[C@H]2[C@H](CO)O1)NCCN1CCCCC1	14	12
CN1[C@@H]2Cn3c(ccc(C4=CCCCC4)c3=O)[C@H]1[C@@H](C(=O)NCCc1ccccc1)[C@@H]2CO	-14	-7
Cc1noc(C)c1NC(=O)Nc1ccc2c(c1)C(=O)N([C@H](C)CO)C[C@H](C)[C@H](CN(C)C)OCCCC[C@@H](C)O2	10	10
C[C@@H]1CN([C@@H](C)CO)S(=O)(=O)c2ccc(C#Cc3ccncc3)cc2O[C@@H]1CN(C)C(=O)C1CCOCC1	-19	-6
COc1ccc(NC(=O)Nc2ccc3c(c2)C(=O)N([C@H](C)CO)C[C@H](C)[C@H](CN(C)S(=O)(=O)c2ccc(OC)cc2)O3)cc1	-6	-7
O=C(Nc1ccc(F)cc1)Nc1ccc2c(c1)[C@H]1C[C@H](CC(=O)N3CCOCC3)O[C@@H](CO)[C@H]1O2	8	-3
C[C@H](CO)N1C[C@H](C)[C@H](CN(C)C)Oc2ncc(-c3ccccc3)cc2C1=O	12&10	4&1
CC(C)NC(=O)N(C)C[C@H]1Oc2ncc(-c3ccccc3F)cc2C(=O)N([C@@H](C)CO)C[C@H]1C	1	2
COc1ccc(NC(=O)N(C)C[C@@H]2OCc3cnnn3CCCC(=O)N([C@H](C)CO)C[C@@H]2C)c(OC)c1	3	1
COc1ccc(CN(C)C[C@@H]2Oc3ccc(NC(=O)Nc4ccc(F)cc4)cc3C(=O)N([C@@H](C)CO)C[C@H]2C)cc1	-14	-11
C[C@@H]1CCCCO[C@H](CN(C)C(=O)Nc2ccccc2)[C@@H](C)CN([C@H](C)CO)C(=O)c2cc(NC(=O)NC3CCCCC3)ccc2O1	28	6
O=C(C[C@@H]1C[C@@H]2c3cc(NC(=O)CC4CC4)ccc3O[C@@H]2[C@H](CO)O1)NCc1ccc(Cl)cc1	-6	-2
CC(C)NC(=O)N1CCCCN2[C@H](C1)[C@@H](c1ccc(Br)cc1)[C@@H]2CO	-1	-18
CCC(=O)N1[C@H](CO)[C@H](c2ccc(C3=CCCC3)cc2)[C@H]1CNC1CCCC1	-14	-5
CN(C)C(=O)c1ccc(-c2ccc([C@H]3[C@@H](C#N)N(C(=O)C4CCCC4)[C@H]3CO)cc2)cc1	?	.
CN1CCCCN2[C@H](C1)[C@@H](c1ccc(-c3ccc(F)cc3)cc1)[C@@H]2CO	?	.
O=C(C[C@H]1C[C@@H]2c3cc(NC(=O)C4CCOCC4)ccc3O[C@@H]2[C@H](CO)O1)NC1CCCC1	6	2
C[C@H]1CN([C@@H](C)CO)C(=O)CCCn2nncc2CO[C@H]1CN(C)C(=O)c1ccc(N2CCN(C)CC2)cc1	8&13	2&9
CO[C@@H]1CN(C)C(=O)c2cc(NC(=O)c3cccc(F)c3)ccc2OC[C@H](C)N(C)C[C@H]1C	1	2
CCN1[C@@H]2c3ccc(-c4ccc(F)cc4)c(=O)n3C[C@@H]2[C@@H](CO)[C@@H]1C(=O)OC	9	6
O=C(C[C@H]1C=C[C@H](NC(=O)C2CCOCC2)[C@H](CO)O1)Nc1ccc(-c2ccccc2)cc1	-10	-11
COCC(=O)N1[C@@H](CO)[C@H](c2ccccc2)[C@@H]1CNC(=O)c1ccccn1	9	7
COc1cccc(C#Cc2ccc([C@@H]3[C@@H](CO)N(C(=O)C4CCCCC4)[C@H]3C#N)cc2)c1	-14	-12
Cc1noc(C)c1S(=O)(=O)Nc1ccc2c(c1)CC(=O)N([C@@H](C)CO)C[C@@H](C)[C@@H](CN(C)Cc1ccc(C(F)(F)F)cc1)O2	?	.
C[C@@H]1CCCCO[C@@H](CN(C)CC2CC2)[C@@H](C)CN([C@H](C)CO)C(=O)c2cc(NC(=O)CCCCCC(=O)Nc3ccccc3N)ccc2O1	22	14
C[C@H](CO)N1C[C@H](C)[C@H](CN(C)Cc2ccc(C(=O)Nc3ccccc3N)cc2)Oc2c(NS(=O)(=O)c3ccccc3)cccc2C1=O	-14	-16
C[C@H]1CCCCO[C@@H](CN(C)S(=O)(=O)c2ccccc2)[C@@H](C)CN([C@@H](C)CO)C(=O)c2cc(NC(=O)Nc3ccc(C(F)(F)F)cc3)ccc2O1	-9	6
Cc1ccc(S(=O)(=O)N(C)C[C@@H]2Oc3c(NS(=O)(=O)c4ccc(Cl)cc4)cccc3C(=O)N([C@@H](C)CO)C[C@H]2C)cc1	13	13
COc1cccc(-c2cnc3c(c2)C(=O)N([C@H](C)CO)C[C@H](C)[C@H](CN(C)Cc2ccncc2)O3)c1	20&18	1&5
COc1ccc(NC(=O)N(C)C[C@H]2Oc3ccc(NC(=O)Cc4ccccc4)cc3CC(=O)N([C@H](C)CO)C[C@H]2C)cc1	-3	3
CS(=O)(=O)Nc1ccc2c(c1)[C@H]1C[C@H](CC(=O)NCc3cc(F)ccc3F)O[C@H](CO)[C@H]1O2	7	5
C[C@@H]1CN([C@H](C)CO)C(=O)c2cccc(NC(=O)C3CC3)c2O[C@H]1CN(C)CC1CC1	0	-1
COc1ccc(CN(C)C[C@H]2OCCCC[C@H](C)Oc3ccc(NC(=O)Nc4c(C)noc4C)cc3C(=O)N([C@@H](C)CO)C[C@@H]2C)cc1	13	7
COc1ccc(NC(=O)Nc2ccc3c(c2)CC(=O)N([C@@H](C)CO)C[C@H](C)[C@@H](CN(C)S(=O)(=O)c2ccc(OC)cc2)O3)cc1	0	-5
CCNC(=O)[C@H]1[C@H](CO)[C@H]2Cn3c(ccc(-c4ccccc4F)c3=O)[C@H]2N1CC1CC1	8	8
COc1ccc(S(=O)(=O)N(C)C[C@@H]2Oc3c(NS(=O)(=O)c4ccccc4)cccc3C(=O)N([C@@H](C)CO)C[C@@H]2C)cc1	-6	-4
C[C@@H]1CN([C@H](C)CO)C(=O)Cc2cc(NC(=O)Cn3cnnn3)ccc2O[C@@H]1CN(C)Cc1ccc(C(=O)O)cc1	5	5
CCC(=O)N(C)C[C@H]1Oc2cc(-c3ccc(OC)cc3)ccc2S(=O)(=O)N([C@H](C)CO)C[C@@H]1C	-6	-1
CC(C)CC#Cc1ccc([C@@H]2[C@@H](CO)N3C(=O)CN(S(=O)(=O)c4ccccc4)C[C@H]23)cc1	-28	-32
COc1ccc(CN(C)C[C@H]2OCCCC[C@H](C)Oc3ccc(NS(=O)(=O)c4ccccc4)cc3C(=O)N([C@@H](C)CO)C[C@H]2C)cc1	?	.
O=C(NC1CCCCC1)N[C@@H]1CC[C@@H](CCNS(=O)(=O)c2ccc(F)cc2)O[C@@H]1CO	6	12
O=C(C[C@@H]1CC[C@@H](NC(=O)c2cccc(F)c2)[C@H](CO)O1)NCc1ccccc1	6	8
Cc1cccc(-c2ccc([C@@H]3[C@H]4CN(Cc5cncnc5)CCCCN4[C@H]3CO)cc2)c1	-15	-17
COc1ccc(C#Cc2ccc([C@@H]3[C@@H](CO)N4CCCCN(C(=O)Nc5ccc(F)cc5)C[C@H]34)cc2)cc1	?	.
O=C(C[C@@H]1C=C[C@H](NC(=O)c2ccc(F)cc2)[C@H](CO)O1)NCCc1ccccc1	0	0
CC(=O)N(C)C[C@H]1Oc2ncc(C#CCc3ccccc3)cc2C(=O)N([C@H](C)CO)C[C@@H]1C	-6	-7
C[C@@H]1CN([C@H](C)CO)C(=O)c2cccc(NS(=O)(=O)c3cccs3)c2O[C@H]1CN(C)C	23	8
COc1ccc2c3c([nH]c2c1)[C@H](CO)N(C(=O)Nc1ccc(F)cc1)CC31CN(Cc2nccs2)C1	-13	-7
CO[C@H]1CN(C)C(=O)c2ccc(NC(=O)C3CCC3)cc2OC[C@@H](C)N(CC2CCCCC2)C[C@H]1C	-1	1
CS(=O)(=O)N1CC(=O)N2[C@@H](CO)[C@@H](c3ccc(C#CCC4CCCC4)cc3)[C@@H]2C1	-15	-7
C/C=C/c1cnc2c(c1)C(=O)N([C@@H](C)CO)C[C@H](C)[C@@H](CN(C)C(=O)c1cnccn1)O2	7	3
NC(=O)[C@H]1[C@@H]2C(=O)O[C@@H](c3ccccc3)[C@@H](c3ccccc3)N2[C@@H](c2ccccc2OCCO)[C@]12C(=O)Nc1ccc(C#CC3(O)CCCCCC3)cc12	?	.
COCCNC(=O)C[C@@H]1C[C@H]2c3cc(NC(=O)Nc4ccc(C(F)(F)F)cc4)ccc3O[C@H]2[C@H](CO)O1	-8	-6
